Compound activity (PubChem BioAssay)
AID504770 = growth inhibitors of E. coli YBA685 in a screen for V. cholerae RctB (chromosome II replication) inhibitors. E. coli YBA685 rctB-dependent plasmid, OD600 growth, 3 h; active compounds read low. z-score (test concentration not listed). actives 0.27% (n = 130,000);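 active = z-score under -2 on both plates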;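 note: wells of about 30 µL received 100 nL stock; score is relative to mean and SD of the test wells; the first replicate is given; strong numbers were not always called active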
Ba CapD inh = blocks the Bacillus anthracis CapD enzyme | purified CapD enzyme, fluorescence intensity read-out; active compounds read low; some hits fall short of the stated cut | z-score (no concentration beside the values) | actives 0.23% (n = 140,000) | AID 492967;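 active = z-score under -4 in either of two replicates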;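 note: stock transfer was 100 nL into about 40 µL; score is relative to mean and spread of the plate; one replicate is shown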
The depositor's hits bear a star; i = inactive; x = not tested or not shown.

SMILES | AID504770 | Ba CapD inh
O=C1NC(=O)C(C2(O)C(=O)c3ccccc3C2=O)C(=O)N1 | -0.55 | 0.36
O=C(Nc1ccc(-c2nc3ccccc3s2)c(O)c1)c1ccccc1F | x | -0.085
COc1ccc2[nH]c3c(=O)n(CC(=O)N4CCN(c5ccc(F)cc5)CC4)c(=S)[nH]c3c2c1 | -0.05 | -0.67
CCNC(=O)c1cc(=O)[nH]c2ccccc12 | 1.4 | x
COCCCNC(=S)N/N=C/c1ccccn1 | x | -2.3
CCCCCCCCCCCOc1ccc(C(=O)Oc2ccc(OCCCCCCCCCC)cc2)cc1 | x | -0.04
COc1ccc(C(Cc2ccncn2)Oc2nc(C)cc(C)n2)cc1 (stereo not given) | x | -0.23
Cc1nnsc1C(=O)Oc1ccc(-c2n[nH]nc2C#N)cc1 | -0.55 | -0.42
CCOC(=O)c1cnc2c(C)c(C)ccc2c1NCCCCCO | -0.3 | x
CC(=O)Nc1ccc(S(=O)(=O)N2CCCCC2C(=O)O)cc1 (stereo not given) | 0 | x
O=c1[nH]n(-c2ccccn2)c(=O)c2ccccc12 | -0.65 | x
CC(=O)C1=C(C)NC(SCC(=O)c2cc(Cl)ccc2Cl)=C(C#N)C1c1cccs1 (stereo not given) | x | -0.76
Cc1nc2c(C(=O)NCCN3CCOCC3)cnn2c(C)c1Cc1cccc(Cl)c1 | 0.4 | 12
COc1cccc(C(=O)N2CCN(Cc3cccc(C)c3)CC2)c1OC | 0 | x
CCCC(=O)Oc1ccc2oc(-c3ccc(OC)cc3)cc(=O)c2c1 | -1.4 | 33
CC(=O)N1CCC(N(C(=O)COc2ccccc2C(=O)NCCc2ccccc2)C2CC2)CC1 | x | -0.48
CC(C)C(=O)NC(c1ccc(N(C)C)cc1)c1ccc2cccnc2c1O (stereo not given) | 0.8 | -0.1
CCOC(=O)c1c(CSc2ccccc2)n(C)c2cc(Br)c(OC)cc12 | x | 0.23
CC(=O)N1Cc2ccccc2CC1C(=O)Nc1ccc(S(=O)(=O)N(C)C)cc1 (stereo not given) | -0.2 | x
COc1cc(OC)cc(C(=O)Nc2ccccn2)c1 | -0.95 | 0.83
COc1ccc(N2CCN(c3[nH]c(-c4ccc(Cl)cc4)cc3C#N)CC2)cc1 | x | 15
N#Cc1c(C(F)(F)F)cc(-c2ccccc2)nc1Sc1ccc(Cl)cc1 | x | 5.2
Clc1ccccc1-c1nc(-c2ccc3nonc3c2)no1 | -1.6 | -0.2
CP(C)(=O)c1ccccc1C(=O)O | 1.3 | x
O=C(Nc1cccnc1)c1noc2c1CCCC2 | 0 | 4

More results follow:
SMILES | AID504770 | Ba CapD inh
N#CCOC(=O)c1nc(-c2ccccc2)n(-c2ccccc2)n1 | -0.5 | x
CN(C)c1ccc(CNCCC2(O)CCOC(C)(C)C2)cc1 (stereo not given) | 0.2 | 0.15
CCCNC(=O)Nc1ccccc1C | -0.4 | 0.29
OC(COc1ccccc1)CSc1nc2ccccc2o1 (stereo not given) | -0.65 | 0.18
CO/N=C\NC(=O)c1ccc(Oc2ncc(C(F)(F)F)cc2Cl)cc1 | x | 0.17
O=C(c1ccc(Cl)cc1)C1CCNCC1 | x | -0.38
C=CCN1C(=O)/C(=C\c2ccc(-c3cc(C(=O)O)ccc3Cl)o2)C(=O)NC1=S | x | -1.4
O=S1(=O)CCC(N=Nc2c(O)[nH]c3ccc(Br)cc23)C1 (stereo not given) | 0.85 | x
CS(=O)(=O)N1CCCc2cc(C(=O)CSc3nnc(COc4ccccc4Cl)o3)ccc21 | -0.15 | x
COc1ccccc1N1C(=O)C(=Cc2ccco2)C(=O)N(c2ccccc2OC)C1=O | x | -0.03
Cn1c(NCc2ccccc2)cc(=O)n(C)c1=O | 0.3 | 0.14
O=C(NCc1ccc2c(c1)OCO2)C1CCCN(S(=O)(=O)c2cnc[nH]2)C1 (stereo not given) | 0.5 | 0.02
Cc1ccc(NC(=O)C2C(=O)N(CCO)C3(C)CC2c2ccccc2O3)c(C)c1 (stereo not given) | 0.55 | -0.26
Cc1ccccc1-c1nc(-c2ccccn2)no1 | -1.7 | 0.88
C/C(=N\NC(=O)N/N=C(\C)c1ccc2ccccc2c1)c1ccc2ccccc2c1 | x | 5.6
CCCCCCc1ccc(C(=O)NNC(=O)c2csc(CS(=O)(=O)Cc3ccco3)n2)cc1 | x | 0.43
Nc1nc2ccccc2n1Cc1ccccc1F | -1.4 | 0.66
CCOc1ccccc1NC(=O)N1CCCC(c2nc3c(nnn3Cc3ccc(C)cc3)c(=O)[nH]2)C1 (stereo not given) | -0.1 | x
N/C(Cc1ccc(Oc2c(Cl)cncc2Cl)cc1)=N\O | 0.2 | 0.02
O=C(Cc1ccc(Cl)cc1)NCc1ccc2[nH]c3c(c2c1)CCCC3 | 0.4 | 12
CC(C)OC(=O)CC(=O)CSc1nc(-c2ccccc2)cc(C(F)(F)F)c1C#N | x | 2.9
Cc1cc(N(Cc2cccc(Cl)c2Cl)C(=O)c2ccccc2)no1 | 1.8 | 0.51
O=C(/C=C/c1ccc2c(c1)OCO2)N/N=C/c1cccc(OCc2ccccc2)c1 | x | 16
O=C1N=c2ccc(Br)cc2=C1c1sc(=O)n(-c2ccccc2)c1O | x | -1
CC(C)(C)NC(=S)N1CCn2cccc2C1c1ccccc1F (stereo not given) | -0.2 | -0.2

4 compounds drawn at random from those above, as already listed:
SMILES | AID504770 | Ba CapD inh
CS(=O)(=O)N1CCCc2cc(C(=O)CSc3nnc(COc4ccccc4Cl)o3)ccc21 | -0.15 | x
OC(COc1ccccc1)CSc1nc2ccccc2o1 (stereo not given) | -0.65 | 0.18
CCCCCCc1ccc(C(=O)NNC(=O)c2csc(CS(=O)(=O)Cc3ccco3)n2)cc1 | x | 0.43
O=C(Cc1ccc(Cl)cc1)NCc1ccc2[nH]c3c(c2c1)CCCC3 | 0.4 | 12

Other structures follow.
SMILES | AID504770 | Ba CapD inh
c1n[nH]c(SCc2cn3ccsc3n2)n1 | -0.35 | x
C/C(=N/O)C12CCC(CC1)C2 | 0.2 | -0.44
CCc1nnc(NC(=O)[C@@H]2CCCN2C(=O)c2cccs2)s1 | -0.9 | x
CCn1c(=NC(=O)C2COc3ccccc3O2)sc2cccc(F)c21 (stereo not given) | -1.1 | x
Cc1c([N+](=O)[O-])c(C/C=N/O)nn1C | x | 0.28
COc1ccc(CN2CCN(C(=O)OCC3CCN(O)CC3)CC2)cc1OCc1ccccc1 | x | 0.43
CCN(c1cccc(C)c1)C(C(=O)NC1CCCC1)c1ccccc1 (stereo not given) | x | -0.44
COc1cccc(/C=N/NC(=O)c2ccoc2C)c1 | 0.7 | 0.05
Cc1cccc(N=C2NC(=O)/C(=C3/C(=O)N(CC(=O)O)c4ccccc43)S2)c1C | 1.9 | -1.8
O=C(Cn1nc(-c2ccccc2)ccc1=O)NCCCN1CCC(Cc2ccccc2)CC1 | 0 | -1
COC(=O)c1ccc2c(=O)n(CCc3ccc(OC)c(OC)c3)c(SCC(=O)Nc3ccccc3OC)nc2c1 | x | 0.59
O=C1NCCCCC1NS(=O)(=O)c1ccc2c(c1)CCO2 (stereo not given) | 2.8 | -0.35
Cc1cc(/C=c2\sc3nc4ccccc4n3c2=O)c(C)n1-c1ccc(C(=O)O)cc1 | x | -0.62
COC(=O)Cn1nnc(N2CCOCC2)n1 | x | -0.055
Cc1cc(C)c2c(n1)sc1c(Sc3nnc(-c4cccs4)o3)ncnc12 | 0.35 | -0.41
N#Cc1c(Cl)nc(N2CCOCC2)c(Cl)c1Cl | -0.1 | -0.3
O=S(=O)(NCC1CN(Cc2ccccc2)CN(Cc2ccccc2)C1)c1ccc(Cl)cc1 | 0.15 | 0.23
C=CCC1(CC=C)C(=O)N(C)C(=O)N(C)C1=O | 1.6 | -0.03
CCNC(=S)N(CCc1c(C)[nH]c2ccccc12)Cc1ccco1 | -0.8 | 0.38
C=C(C)C(=O)OC1CC(C)=C2C(=O)C=C(C)C2C2OC(=O)C(C)(OC(=O)C(=C)C)C12 (stereo not given) | -0.6 | 0.02
O=C(Nc1ccc(Sc2cccc(C(F)(F)F)c2)cc1)c1ccc(F)cc1 | x | -0.27
CN1C(=O)C(C(=O)NC(C)(C)C)C2c3ccccc3OC13CCCCC23 (stereo not given) | -0.5 | 0.58
CCCNC(=O)Nc1ccc2c(c1)OCCO2 | 2.1 | -0.71
O=C(OCc1cnc(Cl)s1)c1ccc(Cl)cc1 | -0.95 | 0.62
CCOC(=O)c1cc(C#N)c(C)nc1N1CCN(C(=O)OCC2CCCN(Cc3ccc(N(C)C)cc3OC)C2)CC1 (stereo not given) | x | 0.11

Later entries.
SMILES | AID504770 | Ba CapD inh
O=C(C1CCN(S(=O)(=O)Cc2ccccc2)CC1)N1CCCc2ccccc21 | 0.2 | x
CC1(C)c2ccccc2-n2c1cc1oc(=O)cc(O)c1c2=O | 0.45 | 2.8
O=C1C(c2ccncc2)=C(O)c2ccccc21 | 0.85 | -2.6
Nc1ccc(S(=O)(=O)Nc2ccccc2)cc1 | 0.5 | x
CCCc1n[nH]c2c1/C(=N\O)CC(c1ccccc1)C2 (stereo not given) | -0.2 | -0.87
O=C(CSc1ncn[nH]1)OCN1C(=O)c2ccccc2C1=O | -0.5 | -0.2
O=S(=O)(NC1CCCCC1)c1c(F)cccc1F | x | -0.54
Cc1cnc2c(c1SCC(=O)NCc1ccc3c(c1)OCO3)c(=O)n(C)c(=O)n2C | 1.1 | x
CCOC(=O)c1ccc(NC(=O)/C=C/c2cccs2)cc1 | 0.5 | 0.26
O=C1c2ccccc2C(=Nc2ccccc2)C1c1ccccc1 (stereo not given) | 1.2 | -0.23
Nc1c(Oc2ccccc2)cc(O)c2c1C(=O)c1ccccc1C2=O | x | -0.07
O=C(C1=COCCO1)N1CCN(C(c2ccccc2)c2ccccc2)CC1 | -0.55 | x
CC1=C(c2ccccc2)SC2=NCCN21 | -0.3 | -0.53
COC(=O)c1ccccc1CSc1nc(C)cc(C)n1 | x | -0.71
CCn1c(SCC(=O)Nc2ccccc2C(=O)NC2CC2)nc2cc(S(N)(=O)=O)ccc21 | -0.65 | x
CC(C)n1nnc(CC(=O)O)n1 | 0.65 | x
CC1=C(C(=O)O)SC2=NCCCCN21 | 1.6 | x
O=C(COC(=O)c1cccc(N2C(=O)C3C4C=CC(C4)C3C2=O)c1)c1ccccc1 (stereo not given) | x | -0.52
CCCc1nc(NC)nc(-c2ccccc2O)n1 | 0 | -0.86
Cc1ccccc1-n1nnnc1SCC(=O)N1CCCc2ccccc21 | 0.95 | x
COC(=O)c1c(C(=O)OC)c(-c2cccc(Cl)c2)n2c1CS(=O)C2 (stereo not given) | x | 0.08
CCOC(=O)COc1c(C=Nc2ccccc2)cc(Br)cc1OC | x | 0.39
COCCNC(=S)N1CCN(c2ccc(S(=O)(=O)N3CCCC3)cc2)CC1 | -0.35 | x
COC(OC)C(C)NC(=O)NC(=O)c1ccccc1Cl (stereo not given) | x | 0.31
CCN1C(=O)/C(=c2\sc3nc(-c4ccccc4OC(C)=O)nn3c2=O)c2ccccc21 | x | 0.32

Part of the list above in order of heavy-atom count, descending:
SMILES | AID504770 | Ba CapD inh
COc1ccc2[nH]c3c(=O)n(CC(=O)N4CCN(c5ccc(F)cc5)CC4)c(=S)[nH]c3c2c1 | -0.05 | -0.67
C=CCN1C(=O)/C(=C\c2ccc(-c3cc(C(=O)O)ccc3Cl)o2)C(=O)NC1=S | x | -1.4
Cc1ccccc1-n1nnnc1SCC(=O)N1CCCc2ccccc21 | 0.95 | x
CCN(c1cccc(C)c1)C(C(=O)NC1CCCC1)c1ccccc1 (stereo not given) | x | -0.44

Next part
SMILES | AID504770 | Ba CapD inh
CN1C(=O)c2ccc(C(=O)NCCCn3ccnc3)cc2C1=O | 0.25 | 0.3
O=C1OC(c2ccc(Cl)cc2)Sc2ccccc21 (stereo not given) | -0.55 | -0.82
Cc1ccc(F)cc1S(=O)(=O)NC1CCN(Cc2ccc(OC(C)C)cc2)C1 (stereo not given) | x | 1.1
Cc1sc2nc(CCl)nc(Cl)c2c1C | 0 | 0.4
C=CCN1C(=O)N(c2ccccc2)C(=O)C1CC(=O)Nc1ccccc1 (stereo not given) | -0.8 | -0.045
CC(C)C(NC(=O)c1ccccn1)c1ccc2c(c1)OCCCO2 (stereo not given) | -0.95 | x
COc1cc2c(cc1OC)C1CC(=O)C(CC(C)C)CN1CC2 (stereo not given) | -0.5 | 0.31
Cc1ccc2nc(CCc3nc4ccc(C)cc4[nH]3)[nH]c2c1 | -0.1 | 0.17
NC(=O)CSc1nc2ccccc2c(=O)[nH]1 | -0.65 | i
COc1cc(NS(=O)(=O)c2ccc(N3C(=O)c4ccccc4C3=O)cc2)nc(OC)n1 | 2 | -0.7
O=C(NC1CC2CCC1C2)c1ccc(CN2CCN(c3ccccc3)CC2)cc1 (stereo not given) | 0.55 | 0.43
COC(=O)c1ccc(-c2ccc(/C=C3\C(=O)N(c4ccc(S(N)(=O)=O)cc4)N=C3C(F)(F)F)o2)cc1 | x | 5.7
CN(C)CP(=O)(O)CCc1ccccc1 | -0.15 | 0.52
O=C1CSC(c2ccc(Cl)cc2)N1Nc1nc(N2CCOCC2)nc(N2CCOCC2)n1 (stereo not given) | x | 0.45
O=C(Cn1ncc2c3ccccc3n(Cc3cccc(Cl)c3)c2c1=O)N1CCCC1 | 0.1 | 1.9
O=C(NCC(c1cccs1)N1CCOCC1)Nc1ccccc1Cl (stereo not given) | -1.8 | x
Cc1ccnc(SC2CC(=O)N(c3ccc(C)c(C)c3)C2=O)n1 (stereo not given) | -0.25 | 0.21
COc1cccc(C(=O)Nc2ncc(I)cc2C)c1 | x | -0.24
NNC(=O)CNC(=O)c1cc(Cl)ccc1Cl | -0.5 | x
CCOc1ccccc1NCC(=O)Nc1ccccc1C#N | 0 | x
C/C(N)=N\S(=O)(=O)c1ccc(Cl)cc1 | 0.8 | 0.39
CCOC(=O)c1cnc2ccc(OCC)cc2c1N(C)Cc1ccccc1 | 0.1 | 0.26
CNC(=S)Nc1ccc2[nH]c(=O)[nH]c2c1 | -0.8 | x

These rows are one share of the data, so the mix of outcomes need not match the whole.
